RGS16-Gao: RGS16-Galphao interaction regulator (human) | bead-based flow cytometry RGS16-Galphao binding, fluorescence; actives lie on both sides | binding response (% of control), % at 10 µM | AID 1441 | 220,000 tested, 0.38% active;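 active means below 25% or above 175%, edge rows of some plates excepted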;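 further: Galphao activated by GDP with aluminum fluoride before binding; 100% = wells without compound and 0% = beads without RGS; some results beyond the cut were filed as inactive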
Target sequence (O15492 whole entry, looked up): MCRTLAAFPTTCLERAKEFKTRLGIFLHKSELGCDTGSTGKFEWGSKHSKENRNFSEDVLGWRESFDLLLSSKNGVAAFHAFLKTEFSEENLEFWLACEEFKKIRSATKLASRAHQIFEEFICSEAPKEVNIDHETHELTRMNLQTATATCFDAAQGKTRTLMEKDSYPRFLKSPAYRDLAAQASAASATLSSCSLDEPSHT
Target sequence (P09471 whole entry, looked up): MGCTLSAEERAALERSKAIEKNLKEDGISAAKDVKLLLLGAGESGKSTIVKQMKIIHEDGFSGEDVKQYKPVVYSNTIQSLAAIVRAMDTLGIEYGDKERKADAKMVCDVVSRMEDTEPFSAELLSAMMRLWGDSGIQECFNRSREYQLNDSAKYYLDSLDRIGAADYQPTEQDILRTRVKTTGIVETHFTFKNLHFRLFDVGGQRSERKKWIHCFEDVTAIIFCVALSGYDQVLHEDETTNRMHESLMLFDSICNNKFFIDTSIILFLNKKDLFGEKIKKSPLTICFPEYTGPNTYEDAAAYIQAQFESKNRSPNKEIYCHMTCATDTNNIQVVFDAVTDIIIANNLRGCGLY
GALR2 ag: GALR2 (human) receptor agonism; O43603; GALR2-expressing cells, agonist activation read-out; activation, %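 (tested at 5 µM)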; 140,000 tested, 0.48% active; AID 803;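 active means above mean plus 3 SD of all compounds, about 5% in these data, not always enough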;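 further: 0% = vehicle buffer wells and 100% = reference agonist at full effect; tested in CHO reporter cells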
Target sequence (O43603 whole entry, looked up): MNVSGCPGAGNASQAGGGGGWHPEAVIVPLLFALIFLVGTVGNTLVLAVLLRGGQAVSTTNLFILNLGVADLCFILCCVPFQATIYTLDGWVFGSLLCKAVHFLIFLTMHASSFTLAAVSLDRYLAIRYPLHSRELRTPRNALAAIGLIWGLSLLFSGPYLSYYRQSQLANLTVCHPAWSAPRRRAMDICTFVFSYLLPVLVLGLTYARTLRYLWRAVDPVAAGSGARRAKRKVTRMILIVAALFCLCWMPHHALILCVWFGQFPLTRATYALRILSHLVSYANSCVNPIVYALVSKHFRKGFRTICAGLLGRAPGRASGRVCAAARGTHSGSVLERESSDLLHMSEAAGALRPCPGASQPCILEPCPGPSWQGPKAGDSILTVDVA
PKD1 inh: PKD1 (human) kinase inhibition | Q15139 | PKD1 kinase fluorescence polarization assay | inhibition, %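 (about 10 µM by stock and volumes)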 | 200,000 tested, 0.056% active;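 active means inhibition of 50% or more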;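 further: controls were vehicle for no effect and a reference inhibitor for full effect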
HSV replic up: increases HSV replication in cells; HSV replication augmentation in cells, fold increase; maximum fold increase; 220,000 tested, 0.005% active; AID 1956;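 active means peak rise of 1.5-fold or more in the series; tested in PC3 cells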;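 further: first round at 10 µM; read as green reporter fluorescence; hits show the peak of a series up to 25 µM; 1 = signal of infected wells without compound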
Insulin prom inh: TRM-6 insulin promoter activity inhibition; 130,000 tested, 0.9% active; inhibition, % at 2 µM; TRM-6 cells (human fetal islet line), insulin promoter-eGFP reporter, imaging; reporter expression induced with tamoxifen;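 active means inhibition above the mean plus 3 SD, with well images judged a real hit on visual review, cut at about 60% in these data, passing the limit was not always enough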
Insulin prom inh cell count: also measured in Insulin prom inh; calls as there; normalized cell count, %; measured here: cell count, toxicity; reference of the scale not given here;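 cells exposed to compound for 48 h; stained nuclei by imaging scaled within each plate; lower means fewer cells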
HSV replic up primary fold: also measured in HSV replic up; calls as there; fold increase; compound at 10 µM; measured here: primary screen fold increase 10 uM; tested in PC3 cells;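 GFP signal in the first replicate; 1 = infected wells without compound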
Active calls of the source: *; i = inactive; / = not tested or not shown.

SMILES	RGS16-Gao	GALR2 ag	PKD1 inh	HSV replic up	HSV replic up primary fold	Insulin prom inh	Insulin prom inh cell count
O=C(OCn1ncc(Br)c(Br)c1=O)c1c(F)cccc1F	104.2	-5.2	-0.2	i	0.637	-257.1	4.3
Cc1ccc2c(c1)[C@H]1OCC[C@H]1[C@@H](c1ccncc1)N2	75.3	-2.8	-6.0	i	0.8	/	/
CCOC(=O)C(NCc1ccccc1OC)(NC(=O)c1ccccc1)C(F)(F)F (centres undefined)	103.5	-1.9	-3.7	i	1.02	-47.4	32.3
CC(=O)c1c(N)nc2n(c1=O)CCCCC2	106.2	-1.0	-15.7	i	0.9	/	/
Nc1c(C(=O)N/N=C/c2ccc([N+](=O)[O-])cc2)cnn1-c1ccccc1	91.2	/	/	i	0.9	/	/
CSc1nc2c(c(=O)n1Cc1ccccc1)SC(C)C2 (centres undefined)	106.5	-0.8	0.2	i	0.82	53.3	78.0
N#CC1=C(S)N(c2ccccc2)C(c2ccc(-c3cccc(Cl)c3)o2)NC1=O (centres undefined)	150.1	-0.7	6.2	i	1.09	-9.1	86.0
CCOC(=O)Cc1csc(NC(=O)c2cnc3scc(C)n3c2=O)n1	/	-0.2	-0.3	i	0.72	62.9	96.5
O=C(COC(=O)c1ccc(S(=O)(=O)NCc2ccco2)cc1)Nc1ccc(Cl)cn1	99.1	/	-9.8	i	0.98	/	/
Cc1ccc(-c2[nH]c3ccccc3c2SCCN)cc1	97.9	/	/	i	0.97	/	/
COc1ccc2cc(C(c3nnnn3C(C)(C)C)N3CCc4ccccc4C3)c(=O)[nH]c2c1 (centres undefined)	102.0	3.4	-4.9	/	/	/	/
CCCCn1c(SCC(=O)N2c3ccccc3Sc3ccccc32)nc2c1c(=O)n(C)c(=O)n2C	108.6	-0.5	-5.8	i	0.75	-66.7	67.0
O=C1C2C(C(=O)N1CCc1ccccc1)C1C=CC2C12CC2 (centres undefined)	102.4	-2.9	8.3	i	0.69	-34.3	98.1
O=S(=O)([N-]c1nc2ccccc2nc1-n1cc[n+](Cc2ccccc2)c1)c1ccc(Cl)cc1	97.4	/	/	i	1.05	/	/
C=CCn1c(C)cc(C(=O)CSc2nnc(-c3cccc(S(=O)(=O)N(CC)CC)c3)o2)c1C	88.7	1.4	0.2	/	/	14.3	67.1
Cc1[nH]c(=O)[nH]c(=O)c1S(=O)(=O)N1CCCC(C(=O)NCCc2ccccc2)C1 (centres undefined)	118.7	-0.1	-3.1	i	1.01	-3.6	60.6
C(=N\Nc1nc(-c2ccccc2)cs1)/c1ccncc1	104.2	/	-5.2	i	0.98	/	/
Cc1ccc(NC(=O)COC(=O)CCC(=O)c2cccs2)cc1S(=O)(=O)N1CCOCC1	100.9	-1.1	-2.8	i	1.11	-4.3	117.0
C[C@@H](C(=O)Nc1ccc2ccccc2c1)[C@H]1C[C@]1(C)[C@H](NS(=O)(=O)c1ccccc1)c1ccccc1	104.4	-1.2	-2.8	i	0.98	-100.0	89.5
CCOC(=O)c1c(C)n(C)c2ccc(OC)c(NC(=O)CN3CCN(C4CCCCC4)CC3)c12	106.9	-1.1	1.5	i	1.01	13.3	107.2
O=C(CC(C(=O)O)P(=O)(c1ccccc1)c1ccccc1)c1ccc(Br)cc1 (centres undefined)	90.5	/	/	i	0.95	/	/
Cc1ccc(C(=O)N/C(=C/c2ccco2)C(=O)NCC2CCCO2)cc1 (centres undefined)	28.8	-0.9	-2.7	i	1.1	-17.2	108.8
COc1ccc(-c2[nH]c(-c3cccc(OC)c3)nc2SCC(=O)NCc2ccco2)cc1	99.7	-0.3	-7.5	i	0.82	/	/
CC1CCCN(c2cc3c(cc2[N+](=O)[O-])C(=O)N(c2ccccc2)C3=O)C1 (centres undefined)	102.8	1.0	-5.9	i	0.98	-14.3	147.1
Cc1ccc(C(=O)NCCn2cc(SCC(=O)Nc3nnc(C)s3)c3ccccc32)cc1	107.1	-2.5	-6.4	i	0.85	/	/
CC(C)OC(=O)C(CC(=O)O)N1CCOCC1 (centres undefined)	105.3	0.0	1.1	i	0.93	-26.3	187.1
COc1ccccc1/C=C/C=N/NC(=O)Cc1cccs1	97.3	-1.3	-1.0	i	0.83	10.0	106.2
COc1cc(OC)cc(-c2nnc(SCC(=O)N3c4ccccc4Sc4ccccc43)o2)c1	/	0.1	-5.5	i	0.83	-46.7	69.8
CCOC(=O)N1CCN(S(=O)(=O)c2ccc3[nH]c(=O)oc3c2)CC1	100.5	/	/	i	0.69	/	/
Cc1ccc(Nc2nc(N)nc(CSc3ncccn3)n2)cc1	102.5	-0.8	-6.2	i	0.92	-18.3	86.4
CCCC1=C(C(=O)OCC)C(c2c(C)nn(-c3ccccc3)c2Cl)C(C#N)=C(N)O1 (centres undefined)	86.1	0.3	-0.2	i	0.89	-3.5	152.9
COc1ccc2nc3oc(C(=O)NCc4cccs4)cc3cc2c1	99.9	-1.6	8.0	i	0.85	-83.3	66.5
CC1(C)OC(=O)N(CCC(=O)Nc2cccc(F)c2)C1(C)O (centres undefined)	95.5	/	-8.0	i	0.82	52.9	79.0
Cn1c(=O)c(=O)n(C)c2cc(S(=O)(=O)N3CCC(Cc4ccccc4)CC3)ccc21	109.5	-1.9	2.4	i	0.89	/	/
COc1ccc(CCN2C(=O)C(Oc3ccccc3C)C2c2ccc3c(c2)OCO3)cc1 (centres undefined)	99.5	-0.1	-1.9	i	0.95	-69.7	110.6
Cc1ccc(OCCOc2ccc(Cl)cc2Cl)c([N+](=O)[O-])n1	104.2	-0.3	-12.2	i	0.95	-66.7	112.1
CCOc1ccc(C(=O)NC2CCN(C(=O)N3CCCC3)CC2)cc1	104.2	-1.7	-4.5	i	0.953	-315.4	103.5
CCCOc1ccc2cc(-c3ccccn3)c(=O)oc2c1	106.8	0.6	-13.9	i	0.99	40.0	46.5
COc1ccc(SCCc2ccncc2)cc1	108.2	/	-5.1	i	0.99	-35.7	116.9
O=C(COC(=O)c1c2ccccc2cc2ccccc12)NCC(F)(F)F	108.2	0.3	-4.9	i	0.82	0.0	55.3
CN(Cc1nc(-c2ccc3c(c2)OCO3)no1)CC1(N2CCOCC2)CCCCC1	100.9	/	-5.4	i	0.91	/	/
COC(=O)c1ccc(Cn2cnc3c(sc4nc(N5CCOCC5)c5c(c43)CCCC5)c2=O)o1	102.0	1.6	-9.2	i	0.88	-25.0	87.7
Cc1ccc(C(=O)NNC(=O)c2cccs2)cc1	99.7	/	-4.1	i	0.88	-23.5	117.1
COCC(=O)Nc1nc2n(n1)C(c1ccccc1)CC(c1ccc(OC)cc1)N2 (centres undefined)	106.0	-2.4	-6.1	i	1.17	/	/
O=C(COc1ccc(-n2ccnc2)cc1)Nc1cccc(F)c1	102.5	/	/	i	1.2	/	/
CCc1ccc(NC(=O)CS(=O)CC(=O)NCC2OCCc3ccccc32)cc1 (centres undefined)	106.2	-1.9	1.2	i	0.8	-37.1	146.4
Cc1nn(C)cc1NC(=O)c1nn(C)cc1[N+](=O)[O-]	102.7	-0.7	-0.4	i	1.04	4.8	86.8
Cc1cccc2cc(C(c3nnnn3Cc3ccccc3)N3CCN(c4ccccc4)CC3)c(=O)[nH]c12 (centres undefined)	102.2	-0.3	-2.6	i	0.91	14.3	75.6
COCCNC(=S)N1CCc2cc(OC)c(OC)cc2C1c1cccs1 (centres undefined)	103.6	/	-6.2	i	0.96	-35.7	115.0
CCc1cccc(NC(=O)c2ccc(CNc3c(N4CCCC4)c(=O)c3=O)cc2)c1	111.1	/	/	i	1.03	/	/
Cc1ccc(C)c(NC(=S)NNC(=O)c2csc(C)c2C)c1	104.1	-0.3	-5.1	i	0.92	18.8	107.7
COc1cccc(C(c2nnnn2Cc2ccc(F)cc2)N2CCC(C(N)=O)CC2)c1OC (centres undefined)	93.6	-1.7	-2.8	i	0.93	/	/
CCn1c2ccccc2c2cc(C3N=C(N)Nc4nc5ccccc5n43)ccc21 (centres undefined)	105.9	-3.3	-11.0	i	0.92	-12.9	68.6
Cc1ccc(-n2nc3c(n2)/C(=N/O)CC/C3=N\O)cc1	108.9	1.2	-3.4	i	0.91	-13.2	105.3
Cc1cc(NC(=O)c2cncc(Br)c2)no1	103.2	-1.0	-6.3	i	0.83	-8.1	142.1
C=CCSc1nc2ccccc2n1S(=O)(=O)c1ccc(Cl)cc1	108.9	-1.3	-6.7	i	0.93	72.2	125.6
CCCc1c(NC(=O)Nc2ccc(F)cc2)cnn1-c1ccccc1	99.5	/	/	i	0.96	/	/
CC(C)OC(=O)CC1=NC(=O)CS1	99.2	-1.4	-1.8	i	0.93	/	/
CCOC(=O)c1ccc(N2CCOCC2)c(NC(=O)c2c(-c3ccccc3)noc2C)c1	102.9	/	/	i	0.7	/	/
O=C(O)C1CC=CCC1C(=O)NCCc1cccc(Cl)c1 (centres undefined)	100.1	-2.6	-1.6	i	1	50.0	112.5

A stretch taken from the entries so far:
SMILES	RGS16-Gao	GALR2 ag	PKD1 inh	HSV replic up	HSV replic up primary fold	Insulin prom inh	Insulin prom inh cell count
CCc1ccc(NC(=O)CS(=O)CC(=O)NCC2OCCc3ccccc32)cc1 (centres undefined)	106.2	-1.9	1.2	i	0.8	-37.1	146.4
Cc1nn(C)cc1NC(=O)c1nn(C)cc1[N+](=O)[O-]	102.7	-0.7	-0.4	i	1.04	4.8	86.8
Cc1cccc2cc(C(c3nnnn3Cc3ccccc3)N3CCN(c4ccccc4)CC3)c(=O)[nH]c12 (centres undefined)	102.2	-0.3	-2.6	i	0.91	14.3	75.6

(more compounds)
SMILES	RGS16-Gao	GALR2 ag	PKD1 inh	HSV replic up	HSV replic up primary fold	Insulin prom inh	Insulin prom inh cell count
O=C(CC1NCCc2ccccc21)Nc1ccc(Oc2ccccc2)cc1 (centres undefined)	101.0	/	-0.6	i	0.82	/	/
Cc1ccc(NC(=O)CC2NCCN(Cc3ccccc3)C2=O)cc1 (centres undefined)	93.5	/	/	i	0.97	/	/
CCN(CC)S(=O)(=O)c1ccc(-c2csc(C)n2)s1	97.6	/	/	i	1.13	/	/
O=C(O)c1ccc(Nc2nc(-c3ccccc3)cs2)cc1	103.9	/	-11.1	i	0.92	26.7	117.7
CC(=O)Nc1ccc(SC[C@H](CC(C)C)N2CCN(CCc3ccccc3)CCC2=O)cc1	102.0	/	/	i	0.82	/	/
Cc1ccc(NC(=O)c2ncn[nH]2)cc1	101.2	/	1.2	i	1.05	-16.7	100.3
CCCC(=O)NCCCCNC(=O)CCC	73.9	-2.8	-1.7	i	1.04	-5.7	145.9
Cn1nc(-c2ccc(C(=O)N3CCN(CCO)CC3)cc2)c2ccccc2c1=O	95.7	0.2	-7.5	i	0.88	-2.8	122.7
CN1CCN(C(c2cccc(Cl)c2)c2ccccc2Cl)CC1 (centres undefined)	101.2	0.2	-3.6	i	0.71	-27.8	113.8
Cc1ccc(NC(=O)CSc2nnc(C3COc4ccccc4O3)o2)c(Cl)c1 (centres undefined)	103.7	/	-4.3	i	0.96	/	/
CCOCc1nc(N)[nH]c(=O)c1Cc1ccc(OC(C)C)cc1	104.2	-1.1	-5.7	i	0.99	17.2	84.2
Cc1ccc(Cn2nc(C)c(NC(=O)CCCn3nc([N+](=O)[O-])c(Cl)c3C)c2C)cc1	103.4	-0.5	0.2	i	0.93	-20.0	130.8
CCOc1cc(S(=O)(=O)NCc2ccccc2)ccc1Br	99.7	/	-4.3	i	1.1	-72.1	117.3
Cc1cc(C(=O)CSc2nnnn2-c2ccc(Cl)cc2)c(C)n1CC1CCCO1 (centres undefined)	97.3	-1.7	-8.3	i	0.96	/	/
COCCn1cnnc1SCC(=O)Nc1sccc1C(N)=O	80.0	/	0.2	i	0.83	/	/
CN(C)c1ccc(C(=O)c2ccc(N(C)C)c3ccccc23)cc1	103.0	0.6	-13.2	/	/	7.0	7.0
COc1ccccc1C(=O)OCc1nc(N)nc(Nc2ccccc2C)n1	97.9	2.0	-8.1	i	0.9	/	/
O=C(CCSc1nc(-c2ccco2)cc(C(F)(F)F)n1)Nc1ccc2c(c1)OCO2	96.4	-0.1	3.4	i	0.97	6.2	109.9
COc1ccc(S(=O)(=O)NCC2CCCN(C(=O)c3ccco3)C2)cc1 (centres undefined)	113.5	/	7.5	i	0.93	/	/
OC(C#CCN1CCCCC1)c1ccccc1 (centres undefined)	128.7	-1.4	0.8	i	0.85	21.9	107.7
Oc1sc(C=Nc2ccc(F)cc2)c2ccccc12	100.2	-1.9	14.9	i	1.01	-20.8	129.3
COc1ccc2c(c1)C1NC(=S)NC(C)(O2)C1C(=O)Nc1ccc(C)cc1C (centres undefined)	92.8	-0.5	-2.9	i	1.01	-10.3	117.9
FC(F)(F)c1ccc2c(c1)NCC1CCCN21 (centres undefined)	99.5	/	-1.8	i	1.24	/	/
CC1=CC(C)(C)NC(=S)N1c1cc(C)cc(C)c1	102.1	/	7.3	i	1.1	-27.3	82.5
